High-throughput results as filed in PubChem BioAssay.
StopGo reporter: lowers the luciferase signal of an FMDV 2A StopGo reporter; human cells with a luciferase reporter of 2A StopGo recoding; control for the full effect not named in the record; Potency, µM (doses to about 57.9 µM), for inactives: at the highest dose signal change, negative = less light; 1.2% of 410,000 active; active = well fitted falling curve with a large enough effect; inconclusive = small, poorly fitted or top-dose-only effect; inactive = no such curve, though single readings can be large or run the other way; tested in HEK293T cells; also: % is scaled to controls: 0 for no effect and ±100 for the full control effect; nearly all actives have a fitted effect of over 45% in size; luciferase light after 4 h
RE007 growth inh: less growth of the S. pombe RE007 Vpr strain; S. pombe RE007 Vpr strain, BacTiter-Glo ATP luminescence, 24 h; control for the full effect not named in the record; Potency, µM (titrated, usually from 92.2 µM), for inactives: top-dose activity change, negative = less growth; 0.21% of 360,000 active; AID 651644; active = well fitted falling curve with a large enough effect; inconclusive = small, poorly fitted or top-dose-only effect; inactive = no such curve, though single readings can be large or run the other way;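 also: % is scaled to controls: 0 for no effect and ±100 for the full control effect; nearly all actives have a fitted effect of over 50% in size; the assay follows cell death caused by Vpr and the record does not say whether a fall means rescue or toxicity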
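Fission yeast strain RE007, carrying one chromosomally integrated HIV-1 vpr copy, was seeded at OD 0.01 in PMG+AL medium with 23 nL pinned compound. After 24 h at 30 °C and 99% humidity, viability was read by BacTiter-Glo luminescence.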
Cruzain Triton: cruzain (T. cruzi) inhibition with detergent. AID 1478. 0.43% of 200,000 active. purified cruzain, Z-FR-AMC fluorescence, 0.01% Triton. Potency, µM, inactives show max response, negative = inhibition, most hits filed as inhibitors; active = well fitted curve in the direction sought with a large enough effect; inconclusive = small, poorly fitted or top-dose-only effect, or another doubt; inactive = no such curve, though single readings can be large; an effect the other way counts as inactive or inconclusive;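 also: plate controls were neutral wells for no effect and buffer without enzyme for full effect; nearly all actives have a fitted effect of over 40% in size; top concentration of the series not given in the record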
Target sequence (P25779 123-467 limits assumed): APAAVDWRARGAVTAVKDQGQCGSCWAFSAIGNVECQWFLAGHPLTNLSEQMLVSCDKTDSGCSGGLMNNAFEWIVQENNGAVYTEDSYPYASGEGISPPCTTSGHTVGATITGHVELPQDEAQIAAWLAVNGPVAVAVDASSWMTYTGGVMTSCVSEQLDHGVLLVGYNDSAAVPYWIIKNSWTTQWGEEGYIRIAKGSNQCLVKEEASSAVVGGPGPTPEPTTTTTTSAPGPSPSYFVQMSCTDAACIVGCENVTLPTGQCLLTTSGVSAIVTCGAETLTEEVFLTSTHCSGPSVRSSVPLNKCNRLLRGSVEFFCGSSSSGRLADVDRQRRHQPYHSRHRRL
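Read-out: AMC fluorescence (360 nm excitation, 450 nm emission), four reads over 2 min, first-to-third difference used. Conditions: cruzain 1.5 nM, Z-FR-AMC 2 uM, pH 5.5 acetate, 5 mM DTT, 0.01% Triton X-100.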
LASV entry inh: blocks Lassa virus binding to or entry into cells; Lassa virus pseudotype entry inhibition, cell reporter; control for the full effect not named in the record; Potency, µM (doses to about 37.9 µM), without a hit: at the top dose activity change, negative = inhibition, actives largely listed as inhibitors; 1.2% of 300,000 active; AID 540256; active means well fitted inhibition curve with a large enough effect; inconclusive means small, poorly fitted or top-dose-only effect, or effect the other way; inactive means flat fitted curve, though single readings scatter; tested in HEK293 cells; also: % is scaled to controls: 0 for no effect and ±100 for the full control effect; nearly all actives have a fitted effect of over 50% in size; luciferase read-out
Cruzain noTriton: cruzain (T. cruzi) inhibition without detergent | 2.3% of 200,000 active | AID 1476 | purified cruzain, Z-FR-AMC fluorescence, no detergent | Potency, µM, for inactives: max response, negative = inhibition, actives largely listed as inhibitors | P25779; active = well fitted curve in the direction sought with a large enough effect; inconclusive = small, poorly fitted or top-dose-only effect, or another doubt; inactive = no such curve, though single readings can be large; an effect the other way counts as inactive or inconclusive;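 also: plate controls were enzyme without inhibitor for no effect and buffer without enzyme for full effect; nearly all actives have a fitted effect of over 40% in size; top concentration of the series not given in the record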
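Detergent-free condition (0.00005% Triton X-100) in acetate buffer pH 5.5 with DTT. 1.5 nM enzyme and compound were pre-mixed 15 min, then 2 uM Z-FR-AMC substrate added; reaction progress from fluorescence change between first and third reads (60 s).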
Marburg entry inh: Marburg virus entry inhibition | Potency, µM (series often up to 37.8 µM), for the others: top-dose activity change, negative = inhibition, most hits filed as inhibitors | 1.8% of 300,000 active | Marburg virus pseudotyped entry inhibition, cell reporter; control for the full effect not named in the record; about a third of the inactives were read at about 46 µM; active = well fitted inhibition curve with a large enough effect; inconclusive = small, poorly fitted or top-dose-only effect, or effect the other way; inactive = flat fitted curve, though single readings scatter; tested in HEK293 cells; about a fifth of its hits are not listed in these tables; also: % is scaled to controls: 0 for no effect and ±100 for the full control effect; luciferase read-out
NS1 function inh: blocks influenza NS1 protein function | S. cerevisiae slowed by influenza A NS1, growth recovery by OD600 | 0.4% of 270,000 active | AID 2326 | Potency, µM (highest dose often 46.1 µM), without a hit: at the highest dose activity, positive = more growth; also: actives are rising curves; nearly all actives have a fitted effect of over 50% in size
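OD600 was taken as the measure of yeast growth restored by compound in an NS1-expressing S. cerevisiae strain. Cells had been washed out of glucose medium and diluted 1:100 into galactose -URA medium, pH 6.0.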
SARS PLpro yeast: blocks SARS-CoV papain-like protease in a yeast assay. Potency, µM (top dose mostly 32.9 µM), for inactives: top-dose activity, positive = growth rescue. S. cerevisiae expressing SARS-CoV PLpro, growth rescue; control for the full effect not named in the record. 0.19% of 330,000 active; also: 0% is about no effect; nearly all actives have a fitted effect of over 55% in size; growth read by luminescence after 48 h
An asterisk follows results filed as active; ? = inconclusive; / = no result given; & = joins results of further samples; [ ] = remark or other dose. Unless noted, calls follow the shape of the dose curve; as a rule, active means well fitted rising curve with a large enough effect; inconclusive means small, poorly fitted or top-dose-only effect; inactive means no such curve, though single readings can be large or run the other way. Potency is read from the fitted curve at half-maximal effect. Not a hit list; any-hit rate near 4.7%.

SMILES | StopGo reporter | RE007 growth inh | Cruzain Triton | LASV entry inh | Cruzain noTriton | Marburg entry inh | NS1 function inh | SARS PLpro yeast
COc1cccc(-c2nn(-c3ccc(C)cc3)cc2C(=O)N(C)CC(=O)Nc2cccc(F)c2)c1 | -11% | -26% | / | ? | / | ? | / | -10%
COC(=O)C1=C(C)N(Cc2ccccc2)C(=NCCCCO)N[C@H]1c1ccccc1 | -22% | -8% | / | / | / | / | -4%&3% | 1%&1%
Cc1ccc(CSc2nc3nc(C)cc(C)c3c(=O)[nH]2)cc1 | -9% | -4% | / | -26%[46.1 µM] | / | ? | / | -2%
CC(C)OC(=O)Cc1nc2sc(-c3ccccc3)cc2c(=O)[nH]1 | 13% | -3% | / | / | / | / | 3% | 0%
O=[N+]([O-])c1ccccc1S(=O)(=O)NCCc1ccncc1 | 97%[activator] | -15% | / | 9% | / | ? | / | -1%
Cc1cc(N2CCN(c3ccccc3)CC2)nc2ccccc12 | 3% | -28% | / | / | / | / | -13% | -3%
N#CCC(=O)Nc1ccc(C(=O)OCC(=O)NNC(=O)c2cccs2)cc1 | -21% | -17% | / | -6% | / | 9% | / | -1%
COc1ccc(C(=O)/C=C/c2ccc(OC)c(COc3ccc(F)cc3)c2)cc1 | / | 11% | -2.7% | -2% | -6% | ? | -7% | -6%
CCn1cc2nc(SCc3cccc(C(F)(F)F)c3)n(Cc3ccc(C)cc3)c(=O)c2n1 | 0% | / | -3.5% | -14%[46.1 µM] | 11% | / | / | /
Cc1ccc(CNC(=O)c2ccc(N3Cc4ccccc4Oc4ncccc43)s2)cc1 | -22% | / | -22% | ? | ? | -12%[46.1 µM] | / | /
Cc1c(-c2cccs2)[n+](=O)c2c(n1[O-])CCC2 | 5% | -2% | -2.7% | 6% | -8% | 1% | 3% | 16%
Cc1ccccc1/C=N/NC(=O)Cn1nnc(N)n1 | -5% | -14% | -2.4% | 0% | -4% | ? | 6% | 1%
COc1ccc(NC(=O)CSC2=Nc3ccccc3C3=NC(CCC(=O)NC4CCCCC4)C(=O)N23)cc1 (stereo not given) | 0% | / | 3.0% | ? | -3% | / | / | /
CC(=O)N1CCN(C(=O)c2cc(S(=O)(=O)N(C)c3ccc(F)cc3)ccc2Cl)CC1 | -5% | 1% | / | 2% | / | -19% | / | 1%
Cc1ccc(-n2ncc3c2CC(C)(C)CC3NC(=O)CCn2cncn2)cc1 (stereo not given) | -22% | 4% | / | -15% | / | 2% | 9% | -4%
CCN(CC)CCCNc1oc(-c2ccc(OC)c(OC)c2)nc1C#N | 1% | -4% | -12% | 18% | ? | -13% | 5% | -4%
Cc1ccc(S(=O)(=O)N2CCN(CC(O)c3ccccc3)CC2)cc1C (stereo not given) | -17% | 10% | / | ? | / | -48%[46.1 µM] | / | -1%
CCOc1ccc(CNCc2c(C(=O)O)c(C)n(Cc3c(F)cccc3Cl)c2C)cc1OC | -11% | / | -3.9% | 0%[46.1 µM] | -13% | -6%[46.1 µM] | / | /
COC(=O)C(O)(c1ccc(NC(=S)NC(=O)c2ccccc2)cc1)C(F)(F)F (stereo not given) | -5% | -1% | -2.1% | 9% | -1% | 6% | 12% | 12%
CC(C)Cc1nnc(NC(=O)CCC(=O)N2CCC3(CC2)OCCO3)s1 | -8% | 0% | / | -10% | / | 6%[46.1 µM] | 1% | -1%
O=C(Nc1ccc(Cl)cc1C(=O)Nc1ccccn1)c1ccco1 | -25% | 2% | -0.4% | ? | -17% | -12% | -39% | -5%
O=C(CNC(=O)c1ccc(Br)o1)NC1CCCCCC1 | 28% | 10% | / | 17% | / | 13%[46.1 µM] | / | -6%
CCOC(=O)C1=C(c2ccccc2)NC(=O)NC1c1cc(Cl)c(O)c(OC)c1 (stereo not given) | 30%[activator] | 0% | / | -18%[46.1 µM] | / | ? | / | -1%
Nc1cc(-c2ccccc2)nn1S(=O)(=O)c1ccc(F)cc1 | ? | -1% | -5.0% | / | -20% | / | 0% | 6%
CCOC(=O)C1(CCCc2ccccc2)CCN(C(=O)c2ccoc2)CC1 | -29% | 40% | / | ? | / | ? | -8% | -1%
O=C(NC(=S)Nc1ccccc1Cl)C1CC1 | 10% | -16% | / | / | / | / | -8% | 1%
COc1ccc(-c2[nH]ncc2-c2nc(C)cs2)c(O)c1 | -23% | 3% | / | -6% | / | 27%[46.1 µM] | 2% | 0%
O=C(NCc1ccc2c(c1)OCO2)c1cccc([N+](=O)[O-])c1 | 0% | 14% | 2.3% | 17% | -3% | 0% | 2% | -5%
CC(=O)NCCc1nc2cc(NC(=O)c3ccccc3C)ccc2n1C | 17% | -8% | / | / | / | / | 16% | 2%
COc1cccc(-c2nc(CSCC(=O)NCCc3ccc(Cl)cc3)c(C)o2)c1 | ? | / | -0.9% | -4%[46.1 µM] | ? | ? | / | /
CCn1c(SCC(=O)Nc2ccc3c(c2)OCCO3)nnc1-c1cccs1 | 0% | 6% | -0.7% | ? | 0% | ? | -16% | 3%
O=C(COc1ccccc1-c1nnc(-c2ccccc2)o1)Nc1ccc(Br)cc1F | -2% | / | 0.0% | 4%[46.1 µM] | -8% | / | / | /
COc1ccc(C)cc1NC(=O)CN1CCN(S(=O)(=O)c2ccc(Br)cc2)CC1 | ? | 10% | 0.7%&-1.9% | ? | -5%&0% | 1%&1%&1% | 0% | 4%
NC(=O)NCc1ccccc1Cl | -14% | 1% | / | 17% | / | 3%[46.1 µM] | 4% | -1%
Cc1ccccc1CCNC(=O)c1ccc(Cl)c(S(=O)(=O)N2CC(C)OC(C)C2)c1 (stereo not given) | 18µM* | 19% | / | -20% | / | ? | / | -4%
O=C(CCc1nc(-c2ccccc2F)no1)NCCc1ccccc1Cl | ? | 1% | 0.5% | 5% | 0% | 0% | -64% | 1%
Cc1ccccc1/C=C\c1nc2ccccc2c(=O)[nH]1 | 25% | 3% | / | ? | / | ? | -7% | 0%
COCCc1nn2c(=O)cc(COC(=O)c3cccs3)nc2s1 | 36%[activator] | / | -1.7% | 4%[46.1 µM] | -12% | / | / | /
CCOC(=O)c1[nH]c2ccccc2c1NC(=O)COC | -22% | 2% | 0.8% | / | -4% | / | -1% | -3%
COc1cc(C2C(C#N)=C(N)Oc3c2c(-c2ccccc2)nn3-c2ccccc2)cc(OC)c1OC (stereo not given) | -2% | 1% | -4.9% | 4% | 10% | ? | ? | -1%

Single values from the entries so far.
Result of COCCc1nn2c(=O)cc(COC(=O)c3cccs3)nc2s1 under Cruzain noTriton: -12%
Result of CCOC(=O)c1[nH]c2ccccc2c1NC(=O)COC under StopGo reporter: -22%

Back to the main list with the 4 entries that preceded the break.
SMILES | StopGo reporter | RE007 growth inh | Cruzain Triton | LASV entry inh | Cruzain noTriton | Marburg entry inh | NS1 function inh | SARS PLpro yeast
Cc1ccccc1/C=C\c1nc2ccccc2c(=O)[nH]1 | 25% | 3% | / | ? | / | ? | -7% | 0%
COCCc1nn2c(=O)cc(COC(=O)c3cccs3)nc2s1 | 36%[activator] | / | -1.7% | 4%[46.1 µM] | -12% | / | / | /
CCOC(=O)c1[nH]c2ccccc2c1NC(=O)COC | -22% | 2% | 0.8% | / | -4% | / | -1% | -3%
COc1cc(C2C(C#N)=C(N)Oc3c2c(-c2ccccc2)nn3-c2ccccc2)cc(OC)c1OC (stereo not given) | -2% | 1% | -4.9% | 4% | 10% | ? | ? | -1%
Cc1ccc(P(=O)(OCCN2CCOCC2)C(C)(C)C)o1 (stereo not given) | -15% | -1% | 1.6% | -6% | -2% | 2% | -10% | -14%
CC(C)C(c1nnnn1CCc1ccccc1)N1CCSCC1 (stereo not given) | -6% | 9% | / | / | / | / | -34% | -3%
O=C(Nc1ccc2c(c1)OCO2)c1cccn(Cc2ccccc2)c1=O | -10% | / | 2.5% | 22%[46.1 µM] | 10% | / | / | /
Cc1ccc(S(=O)(=O)N(CCC(=O)Nc2ccc(OC(F)(F)F)cc2)c2ccccc2)cc1 | 0% | 1% | -8.0% | ? | -1% | 14% | -23% | -19%
COC(=O)[C@H](Cc1ccccc1)NC(=O)N1CCCCC1 | 30% | 2% | / | ? | / | ? | -4% | -5%
CC1Oc2ccccc2N(CC(=O)c2ccc(F)cc2)C1=O (stereo not given) | -12% | -15% | / | 15% | / | 15%[46.1 µM] | / | -6%
Cc1ccc([N+](=O)[O-])c(OCCN2CCCCCC2)c1 | -10% | 9% | -7.2% | -19% | -13% | ? | 13% | -2%
CCn1c(=O)cc(OCC(=O)NCc2ccccc2OC)c2ccccc21 | ? | / | -0.4% | 4%[46.1 µM] | -12% | -27%[46.1 µM] | / | /
O=C(COc1ccccc1)NC1CCCN(Cc2ccccc2F)C1 (stereo not given) | -10% | -4% | / | / | / | / | -12% | -5%
Cc1c(C)c2ccc(OCC(=O)Nc3nccs3)cc2oc1=O | -36% | -6% | / | / | / | / | -6% | 4%
O=C(CCC(=O)N1Cc2ccccc2Oc2ncccc21)NCc1cccc(Cl)c1 | -10% | / | -2.2% | 19%[46.1 µM] | -4% | / | / | /
COc1cccc(-c2ncnn2-c2sc3c(c2C#N)CCCCC3)c1OC | 33%[activator] | / | 0.4% | 21%[46.1 µM] | 6% | / | / | /
Cc1ccc(C(=O)N2CC(=O)Nc3ccc(C)cc3C2c2ccccc2)cc1 (stereo not given) | -13% | 2% | / | -1%[46.1 µM] | / | -22%[46.1 µM] | 3% | 0%
O=C1CN(C(=O)COc2ccc(Cl)cc2Cl)c2ccccc2N1 | 4% | 16% | / | -4% | / | 7%[46.1 µM] | 3% | 0%
